LANA-H2B inh: blocks KSHV LANA binding to histone H2A/H2B; cell-free LANA-H2A/H2B peptide, fluorescence polarization; inhibition, % (test concentration not listed); hit rate 0.6% among 320,000; AID 2629; in the data active means inhibition mostly above about 10%, no sharp cut-off; inactive means mostly below about 6.7%;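 further: stock transfer was 7.5 nL into about 10 µL; 0% = median of vehicle wells and 100% = median of positive control wells; one replicate is shown; the record names a cut of 25% in any replicate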
Target sequence (Q9QR71 whole entry, looked up): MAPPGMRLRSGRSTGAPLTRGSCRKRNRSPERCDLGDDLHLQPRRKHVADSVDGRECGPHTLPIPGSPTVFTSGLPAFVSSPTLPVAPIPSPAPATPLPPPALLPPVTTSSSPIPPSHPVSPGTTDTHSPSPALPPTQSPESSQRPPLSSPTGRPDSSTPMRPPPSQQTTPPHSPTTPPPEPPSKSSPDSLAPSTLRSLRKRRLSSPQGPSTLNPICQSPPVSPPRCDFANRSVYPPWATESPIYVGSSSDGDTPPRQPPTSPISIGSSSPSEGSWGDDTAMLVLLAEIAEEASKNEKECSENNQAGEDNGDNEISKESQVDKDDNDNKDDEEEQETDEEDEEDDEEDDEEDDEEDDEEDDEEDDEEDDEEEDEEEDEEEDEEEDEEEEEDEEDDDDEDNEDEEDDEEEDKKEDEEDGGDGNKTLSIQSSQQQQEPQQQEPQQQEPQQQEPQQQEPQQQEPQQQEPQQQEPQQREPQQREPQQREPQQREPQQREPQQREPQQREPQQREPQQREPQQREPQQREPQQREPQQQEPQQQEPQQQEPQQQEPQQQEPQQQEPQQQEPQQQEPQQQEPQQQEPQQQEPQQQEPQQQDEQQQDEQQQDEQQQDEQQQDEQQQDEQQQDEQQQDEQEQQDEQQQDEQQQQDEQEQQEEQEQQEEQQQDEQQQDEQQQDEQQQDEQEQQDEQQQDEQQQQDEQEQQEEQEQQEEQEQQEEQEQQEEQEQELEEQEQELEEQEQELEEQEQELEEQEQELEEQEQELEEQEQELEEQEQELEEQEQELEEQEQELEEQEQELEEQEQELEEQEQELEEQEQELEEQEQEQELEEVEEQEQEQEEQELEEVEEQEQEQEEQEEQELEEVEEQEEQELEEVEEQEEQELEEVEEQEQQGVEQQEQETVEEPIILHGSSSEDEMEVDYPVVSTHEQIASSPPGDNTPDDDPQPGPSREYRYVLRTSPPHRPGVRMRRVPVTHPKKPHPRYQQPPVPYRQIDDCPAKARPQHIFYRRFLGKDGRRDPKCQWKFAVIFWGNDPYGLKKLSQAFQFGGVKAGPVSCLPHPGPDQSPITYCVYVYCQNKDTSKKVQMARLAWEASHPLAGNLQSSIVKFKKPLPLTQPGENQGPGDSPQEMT
Bfl-1 A1 inh: inhibitors of the anti-apoptotic protein A1, read as caspase activation; MEF A1-2A-BIM cells, Caspase-Glo 3/7 luminescence, 3 h; percent of clofoctol response, vehicle zero; caspase activation, % (test concentration not listed); hit rate 0.066% among 330,000; AID 2462;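 active means over half of replicate activation scores above 10%, or exactly half above 10 with the replicate mean above 10; inconclusive means replicate mean below 10 yet half the replicates above 10; inactive means over half of replicates below 10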;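 further: wells of about 30 µL received 50 nL stock; many hits fall short of the cut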
T cruzi inh: blocks replication of Trypanosoma cruzi; T. cruzi beta-gal in NIH3T3, luminescence, 90 h; inhibition, % (test concentration not listed); hit rate 1.4% among 300,000;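 active means mean inhibition across valid replicates above about 55%, limit read from the data; inconclusive means mean below that limit but half or more replicates reach it; inactive means mean below it, under half of replicates reach it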;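 further: signal also drops with host cell toxicity which is not excluded here; 0% = plate median of DMSO wells and 100% = zero luminescence signal; higher percent means less beta-gal luminescence so fewer parasites; stock transfer was 50 nL into about 50 µL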
Beta apoptosis: beta cell apoptosis inhibition | protection from apoptosis, % (concentration not given with the values) | hit rate 0.8% among 300,000 | INS-1E cytokine-induced death, ATP luminescence, 48 h; percent of positive-control rescue, neutral wells zero | AID 435005;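 active means all replicates at 75% or more, or half of them and the mean; inconclusive means half reach 75% but not the mean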;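 further: 0% = cytokine-treated negative control wells and 100% = positive control rescue; higher means more ATP so stronger rescue from cytokine killing; wells of about 40 µL received 100 nL stock; the first replicate is given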
Ecoli rRNA inh: selective bacterial rRNA inhibition in E. coli; E. coli WT GFP vs humanized-ribosome RFP mutants, fluorescence, 24 h; hits give low values; DMSO median 0, no signal -100; GFP signal change (wild-type ribosome), % (test concentration not listed); hit rate 1.6% among 350,000; AID 720706;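 active means significant combined selectivity score with lowered wild-type GFP, culture density cut under 30%, mutant RFP and density less affected; inactive means any of these conditions unmet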; further: one replicate is shown; some compounds called inactive have numbers as strong as hits
Beta2AR agonist: agonists of human beta-2 adrenergic receptor inducing internalization | P07550 | Am2.2-beta2AR cells, FAP receptor internalization, flow cytometry; reference of the scale not given here | response, % (test concentration not listed) | hit rate 0.43% among 340,000 | AID 504454;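 active means response above a set limit, near 3 SD of response in nonfluorescent compounds, cut at about 42% in these data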;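 further: stock transfer was 100 nL into about 11 µL; a reference agonist was the positive control; negative values mostly stem from fluorescent compounds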
Calb FLC: C. albicans growth modulation with fluconazole; C. albicans CaCi-2 (fluconazole-resistant clinical isolate) + fluconazole, Alamar Blue growth, 48 h; growth inhibition, % (no concentration beside the values); hit rate 0.57% among 300,000;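 active means most replicates above 75%; inconclusive means exactly half above 75%; inactive means most below 75%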;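 further: all wells also contain fluconazole at 8 µg/ml as a sub-toxic cotreatment; 0% = median of DMSO wells and 100% = median of geldanamycin control wells; wells of about 8 µL received 7.5 nL stock; the first replicate is given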
ALR inh: blocks human ALR sulfhydryl oxidase activity; P55789; purified ALR, DTT oxidation, H2O2 HRP-luminol luminescence; inhibition, % (test concentration not listed); hit rate 3.8% among 290,000;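 active means mean and each replicate at 75% or more; inconclusive means only one of the two met; inactive means neither met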;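 further: stock transfer was 7.5 nL into about 7.5 µL; 0% = neutral wells and 100% = wells with inactivated enzyme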
Ecoli rRNA inh OD600: recorded beside Ecoli rRNA inh, whose call it bears; OD600 change, %; measured here: OD600 growth;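 optical density of the mix in the first replicate; 0 = DMSO median and -100 = no signal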
Ecoli rRNA inh RFP: also measured in Ecoli rRNA inh; calls as there; RFP signal change, %; measured here: RFP humanized mutant strains;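 first replicate; 0 = DMSO median and -100 = no signal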
Numbers without * were called inactive; ? = inconclusive; · = not tested or not shown. Some of the compounds tested; count on the stated rates, not on these rows.

Order of results – LANA-H2B inh | Bfl-1 A1 inh | T cruzi inh | Beta apoptosis | Ecoli rRNA inh | Ecoli rRNA inh OD600 | Ecoli rRNA inh RFP | Beta2AR agonist | Calb FLC | ALR inh
(1) O=[N+]([O-])c1cccc(/C=C/c2ccncc2)c1
 : 0.0 | -5.5 | 47.8 | 0.2 | 5.4 | -3.0 | -6.1 | -3.0 | -4.8 | -12.5
(2) CCOP(=O)(OCC)C(NC(=O)/C=C/c1ccc(OC)cc1)c1ccccc1 (centres undefined)
 : -0.2 | 0.8 | 10.8 | -5.0 | -3.8 | -1.1 | -0.6 | 3.3 | -8.1 | ·
(3) O=C(NCC1OCCc2ccccc21)c1ccc(NC(=O)c2ccc(Cl)cc2Cl)cc1 (centres undefined)
 : 9.3 | 0.7 | 23.6 | 25.2 | · | · | · | -2.3 | 23.6 | 0.2
(4) COc1ccc2nc(CNC(=O)C3CCC(=O)N(CCc4ccccc4)C3)[nH]c2c1 (centres undefined)
 : 1.3 | 0.0 | 0.3 | 2.1 | -3.7 | -4.8 | -0.5 | -3.9 | -1.7 | -16.3
(5) O=C(Nc1ccnn1C1CCN(Cc2ccc(F)cc2)CC1)C1CC1
 : · | · | 2.7 | · | 1.5 | 10.4 | -0.5 | -4.9 | 4.9 | ·
(6) COc1ccc(C=O)cc1CSc1nnc(COc2cccc3cccnc23)o1
 : 0.6 | -0.2 | 1.6 | 6.2 | · | · | · | 4.0 | ? | -43.8
(7) COc1ccc(CN2CC[C@H]3C=CC[C@@H](C(=O)N4CCOCC4)[C@H]3C2=O)cc1OC
 : -3.5 | 0.3 | 0.9 | 5.2 | 4.2 | -1.8 | -0.9 | -3.0 | -10.1 | -13.9
(8) O=C1C=C(Nc2ccc(Cl)cc2)CC(c2ccco2)C1 (centres undefined)
 : 3.6 | -0.8 | 4.9 | 6.9 | · | · | · | -7.6 | 4.4 | -14.4
(9) COc1cccc(C2C(C#N)=C(N)N(N(C)C)C3=C2C(=O)CC(C)(C)C3)c1OC (centres undefined)
 : -3.1 | 1.2 | 22.6 | -1.2 | 11.0 | 15.2 | -9.0 | 3.2 | 1.1 | -19.5
(10) CCOC(=O)Cc1csc(NC(=O)/C=C/c2ccc(Cl)cc2)n1
 : -8.4 | -1.0 | -7.7 | 18.8 | -9.9 | -3.3 | -2.4 | 4.7 | 14.0 | 0.6
(11) Cc1cc(NC(=O)CN2CCCCC2)no1
 : -3.5 | 0.0 | -13.1 | -4.0 | 16.9 | 8.2 | 0.3 | 8.8 | -5.5 | -1.0
(12) COc1cc(C(C#N)N2CCOCC2)ccc1O (centres undefined)
 : 1.0 | 0.0 | · | -13.3 | · | · | · | 17.2 | · | -15.1
(13) CCOC(=O)c1cc(NC(=O)NCc2ccco2)c(C)nc1C
 : 8.5 | -0.5 | -21.1 | -0.4 | · | · | · | -0.3 | -0.3 | -4.3
(14) CC1CCN(C(=O)CN(c2ccc(Oc3ccccc3)cc2)S(C)(=O)=O)CC1
 : 2.2 | 0.2 | -12.5 | -6.3 | · | · | · | · | 8.0 | -1.6
(15) Cc1[nH]c2ccccc2c1C(=O)COc1ccccc1F
 : 4.7 | 1.0 | -4.5 | -4.2 | -9.0 | -4.7 | -1.4 | -17.7 | -5.5 | -5.7
(16) COc1ccc(Cl)cc1C(=O)NCC(=O)OCc1ccccc1
 : 2.7 | -1.0 | -3.0 | -2.8 | -7.7 | -5.0 | -0.9 | 5.1 | · | -0.7
(17) Cc1ccc(Cn2c(O)c(N=O)c3ccccc32)cc1
 : -4.2 | -0.2 | 9.6 | 4.2 | -5.1 | -8.0 | 4.0 | 2.2 | -5.8 | -7.6
(18) O=C(CN1C(=O)NC2(CCCCC2)C1=O)Nc1ccccc1N1CCCC1
 : 3.5 | 0.3 | -4.1 | -3.1 | 1.7 | 9.1 | -1.8 | -1.4 | · | 31.5
(19) O=C(NC1CCCC1)C1CCN(c2nccs2)CC1
 : -2.7 | 0.1 | 3.6 | -4.0 | · | · | · | -10.3 | -1.2 | -8.1
(20) CCCCn1c(=O)c(CCC(=O)OCC(=O)NCc2ccc(OC)c(OC)c2)nc2ccccc21
 : 0.9 | 0.4 | 7.7 | 1.1 | 11.1 | 9.0 | 1.8 | -9.7 | 76.9* | -4.7
(21) Cc1ccc(N2CC(C(=O)OCC(=O)Nc3ccc(Cl)cc3)CC2=O)cc1 (centres undefined)
 : 0.2 | -0.2 | · | -9.4 | 7.3 | 1.6 | 0.0 | -2.8 | · | 9.2
(22) CC(=O)COc1ccc2oc(=O)cc(-c3cc4ccccc4o3)c2c1
 : 2.0 | -0.8 | 15.2 | · | 3.5 | -4.6 | -6.9 | -1.6 | 1.0 | -8.9
(23) O=C(NC1CCCCC1)c1ccc(-n2cncn2)c([N+](=O)[O-])c1
 : 0.3 | -0.4 | · | 5.1 | -7.7 | 7.4 | -1.5 | 1.9 | · | -38.3
(24) CC(=C/c1ccco1)/C=N/N1CCN(c2ccccc2)CC1
 : 0.1 | -6.5 | -26.4 | · | · | · | · | -5.9 | -36.7 | -9.0
(25) COc1cc2c(cc1N/C=C(\C#N)c1nc(-c3ccc(F)cc3)cs1)oc1ccccc12
 : -2.3 | 0.4 | 11.2 | -1.6 | 14.9 | 5.2 | -0.6 | 3.1 | -5.5 | -4.3
(26) CN(Cc1cccs1)C(=O)CNC(=O)c1ccco1
 : 0.7 | 0.5 | -18.6 | -3.3 | 10.2 | 16.5 | -0.1 | 9.1 | -13.6 | -6.5
(27) Cc1cccc(OCC(=O)Nc2ccc3c(c2)OCO3)c1C
 : 5.0 | -0.8 | -2.4 | · | · | · | · | -3.0 | -17.2 | -2.2
(28) COc1ccccc1-c1nnc(SCC(=O)Nc2c(Cl)cccc2Cl)o1
 : -1.3 | -0.6 | -2.1 | 5.5 | · | · | · | -4.3 | ? | -10.8
(29) COc1cccc(C(c2nnnn2CCc2ccccc2)N2CCN(c3ccccc3)CC2)c1OC (centres undefined)
 : -3.4 | -0.2 | 42.8 | 23.8 | · | · | · | 2.8 | -3.8 | 3.9
(30) C=C(C)CNC(=S)NNC(=O)c1ccco1
 : 0.9 | -0.2 | -19.9 | 0.8 | · | · | · | 0.0 | -6.9 | 23.4
(31) CC1=C(C(=O)OC(C)C)C(c2ccc(Br)s2)NC(=O)N1 (centres undefined)
 : 8.1 | 0.4 | -2.1 | -5.5 | · | · | · | -10.4 | -1.0 | 1.3
(32) NC(=O)COC(=O)c1cc(Cl)cc(Cl)c1N
 : 2.5 | -0.8 | 3.1 | -1.8 | 1.0 | 1.6 | 2.0 | -3.9 | 19.2 | -8.2
(33) COC(=O)c1cc(NS(=O)(=O)c2ccc(NCc3cccnc3)c(N)c2)cc(C(=O)OC)c1
 : 19.9 | -0.2 | -4.1 | -0.6 | · | · | · | -4.2 | 5.7 | 22.2
(34) CC(Sc1nnc(C2CC2)n1C)C(=O)Nc1ccc2c(c1)CCC2 (centres undefined)
 : -474.5 | -0.3 | · | -0.1 | 8.1 | 2.8 | 0.4 | -6.6 | · | -3.1
(35) COc1ccc2cc3cc(C(=O)Nc4ccccc4N4CCN(C)CC4)oc3nc2c1
 : -2.7 | -3.9 | 67.2* | 22.6 | · | · | · | 18.9 | -3.8 | -3.1
(36) CCN(CC)CCNC(=O)C1c2cc(OC)c(OC)cc2C(=O)N2CCc3ccccc3C12 (centres undefined)
 : -2.7 | -0.5 | · | · | · | · | · | -13.6 | · | -0.7
(37) O=C(NC1CC2CCC1C2)c1ccc(CN2CCOCC2)cc1 (centres undefined)
 : -0.3 | 0.8 | -8.6 | -0.6 | · | · | · | -2.8 | 2.1 | -3.3
(38) COc1ccc(-c2cc(C)nc3nc(N)nn23)cc1
 : -3.3 | -0.3 | 2.9 | 3.6 | · | · | · | 12.2 | 0.9 | -3.8
(39) COc1ccc(OCc2cc(C(=O)NCc3nc(C)cs3)no2)c(Cl)c1
 : 0.6 | 0.6 | 7.3 | · | -9.4 | -49.2 | 1.8 | -6.4 | 24.0 | -5.9
(40) Nc1nc(Nc2ccccc2)nc(N2CCOCC2)c1[N+](=O)[O-]
 : -5.1 | -1.1 | -21.2 | -4.4 | · | · | · | 13.2 | -13.6 | -0.5
(41) Cc1ccc(S(=O)(=O)N(C)c2ccc3c(ncn3C)c2[N+](=O)[O-])cc1
 : -3.5 | 0.7 | 3.5 | -1.4 | 0.7 | 1.3 | 11.0 | -7.8 | 0.3 | -30.7
(42) CCOc1ccc(Nc2n[nH]c(=S)s2)cc1
 : -5.5 | -0.8 | -11.8 | 2.3 | -3.5 | -2.5 | -3.7 | -2.6 | 1.1 | ·
(43) Cc1cccc(C)c1OCc1cc(C(=O)N2CCN(c3ccccc3)CC2C)no1 (centres undefined)
 : -27.2 | -0.8 | 22.2 | -0.1 | -9.1 | -9.6 | 3.9 | 5.4 | 2.9 | -9.6
(44) CC1(C)CC(=O)C=C(Nc2cccc(Cl)c2Cl)C1
 : 1.6 | 0.2 | 7.4 | 8.0 | -2.6 | -2.5 | 0.5 | 2.5 | 2.7 | 13.2
(45) CCOC(=O)/C(=N\Nc1ccccc1Cl)N1CCN(c2ccccc2OC)CC1
 : -2.1 | -0.1 | 67.2* | 2.8 | 14.5 | 13.9 | 0.6 | 11.4 | -19.2 | -14.4
(46) COc1ccc(C)cc1-n1c(SCC(=O)Nc2cc(C)on2)nc2ccccc2c1=O
 : 5.8 | 0.0 | -2.8 | -12.5 | -8.9 | -0.2 | -2.8 | -2.5 | 4.3 | -7.0
(47) CC(C)C[C@@H]1NC(=O)[C@H](Cc2ccc(O)cc2)NC(=O)c2cc([N+](=O)[O-])cc(I)c2NCCC[C@@H](C(N)=O)NC1=O
 : 1.3 | 0.1 | · | -9.4 | · | · | · | -6.2 | · | -4.3
(48) O=C(Nc1ccccc1N1CCOCC1)c1cccs1
 : -2.1 | -1.2 | -3.8 | -1.9 | · | · | · | -5.0 | -0.8 | 11.3
(49) O=[N+]([O-])c1cc2c(cc1/C=N/n1c(-c3ccccc3)n[nH]c1=S)OCO2
 : 0.6 | 0.6 | 12.7 | 1.7 | · | · | · | 4.4 | ? | 87.1*
(50) C=CC[C@@H](CC(=O)OC(C)(C)C)C(=O)OC[C@@H]1CCCN1C(=O)[C@@H](CC=C)CC(=O)N[C@@H](CO)Cc1ccccc1
 : 1.1 | 1.2 | · | 0.3 | 0.2 | 10.1 | -1.3 | -3.2 | · | -7.6
(51) Cc1ccc(SC(C)C(=O)O/N=C(\N)c2ccncc2)cc1 (centres undefined)
 : -3.6 | 0.9 | 20.8 | 0.2 | -33.0 | -27.6 | -2.9 | -6.2 | -2.1 | -0.6
(52) CC(=O)OCC(=O)Nc1cc(S(=O)(=O)N2CCCCCC2)ccc1Cl
 : -1.0 | 0.3 | 4.7 | -4.0 | 0.1 | -1.1 | -3.0 | -3.3 | -14.4 | -1.0
(53) Cc1cccc(C)c1NC(=O)CNC(=O)C(Cc1ccccc1)NC(=O)c1ccccc1 (centres undefined)
 : 6.1 | 1.3 | 0.2 | 8.8 | 10.5 | -0.2 | 3.6 | -0.5 | -1.0 | -3.0

Screens from PubChem BioAssay.
